From PubChem
EPAC2 ant val: validation of human EPAC2 antagonists; 16,000 compounds, 1.7% hits; AID 1645886; EPAC2 Rap1B BODIPY-GDP exchange, fluorescence; Q8WZA2; Potency, µM (top dose mostly 112 µM), for inactives: at the top dose activity, negative = inhibition, most hits filed as inhibitors; active = well fitted inhibition curve with a large enough effect; inconclusive = small, poorly fitted or top-dose-only effect; inactive = no such curve, though single readings can be large or run the other way;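 note: 100% = activation by cAMP agonist control; nearly all actives have a fitted effect of over 40% in size; the record reuses the description of the EPAC1 agonist screen; inactives centre near -10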
Target sequence (Q8WZA2 whole entry, looked up): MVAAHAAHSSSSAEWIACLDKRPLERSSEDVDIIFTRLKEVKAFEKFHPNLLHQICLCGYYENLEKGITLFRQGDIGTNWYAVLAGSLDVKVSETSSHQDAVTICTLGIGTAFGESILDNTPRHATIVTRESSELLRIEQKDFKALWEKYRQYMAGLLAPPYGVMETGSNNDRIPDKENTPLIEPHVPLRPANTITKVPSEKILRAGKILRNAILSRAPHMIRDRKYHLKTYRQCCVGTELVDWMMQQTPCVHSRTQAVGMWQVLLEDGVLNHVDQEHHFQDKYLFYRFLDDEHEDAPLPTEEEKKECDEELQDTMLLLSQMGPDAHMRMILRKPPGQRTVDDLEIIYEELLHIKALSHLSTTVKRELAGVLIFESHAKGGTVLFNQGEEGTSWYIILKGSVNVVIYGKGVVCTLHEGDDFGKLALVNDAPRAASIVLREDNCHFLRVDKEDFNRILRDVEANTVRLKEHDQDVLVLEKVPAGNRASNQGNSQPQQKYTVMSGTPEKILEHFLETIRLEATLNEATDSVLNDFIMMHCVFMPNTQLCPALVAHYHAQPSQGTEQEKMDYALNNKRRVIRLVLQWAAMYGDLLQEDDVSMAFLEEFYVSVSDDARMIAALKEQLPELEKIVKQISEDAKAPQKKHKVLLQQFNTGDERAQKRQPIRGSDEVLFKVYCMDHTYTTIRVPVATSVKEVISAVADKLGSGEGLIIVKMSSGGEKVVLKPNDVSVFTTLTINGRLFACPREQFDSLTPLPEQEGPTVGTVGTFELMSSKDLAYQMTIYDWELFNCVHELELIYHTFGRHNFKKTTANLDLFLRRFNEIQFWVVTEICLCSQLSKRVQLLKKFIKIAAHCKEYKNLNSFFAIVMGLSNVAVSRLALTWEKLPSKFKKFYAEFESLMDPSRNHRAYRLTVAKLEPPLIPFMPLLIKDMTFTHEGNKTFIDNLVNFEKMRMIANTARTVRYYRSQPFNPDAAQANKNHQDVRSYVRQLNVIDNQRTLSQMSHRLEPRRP
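Fluorescent exchange read-out: 100 nM EPAC2 with 250 nM RAP1B–BODIPY-GDP and 50 uM GDP; BODIPY-GDP release lowers fluorescence. Read at 480/540 nm every 5 min for 30 min at room temperature; normalized to 6.5 mM cAMP.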
The depositor's hits bear a star; ? = inconclusive; & = joins results of further samples; [ ] = remark or other dose. Potency is the fitted concentration of half-maximal effect.

SMILES | EPAC2 ant val
C[N+](C)(C)CC#CCN1CCCC1=O | -7%&-20%
CC(C)(O)C(Cl)(Cl)Cl | -18%
C[C@H](N)Cc1cccc(C(F)(F)F)c1 | -7%
CC(=O)[C@H]1CC[C@H]2[C@@H]3CC[C@H]4C[C@](C)(O)CC[C@]4(C)[C@H]3CC[C@]12C | 15%&24%
Oc1ccc([C@H]2CNCc3c2ccc(O)c3O)cc1O | 8%
CC(N)[C@@H](O)c1ccccc1 (some centres undefined) | -3%
CN1C[C@@H](NS(=O)(=O)N(C)C)C[C@@H]2c3cccc4c3c(cn4C)C[C@H]21 | 8%
C[C@]12CC[C@@H]3[C@@H](CCC4=CC(=O)CC[C@@H]43)[C@@H]1CC[C@@H]2OC(=O)CCc1ccccc1 | 12%
O=C(OCCN1CCCCC1)C(O)(c1ccccc1)c1ccccc1 | 8%
O=C(O)COc1cc(Cl)c(Cl)cc1Cl | -15%
CC(C)=CC1C(C(=O)OCc2cccc(Oc3ccccc3)c2)C1(C)C (centres undefined) | -29%
C=C1C([C@@]2(C)C(OC(C)=O)CC(=O)O[C@@](C)(COC(C)=O)C2CC(=O)OC)C(OC=O)C(OC(=O)C(OC(C)=O)C(C)CC)[C@]2(C)C(c3ccoc3)CC(=O)C12O (some centres undefined) | ?
O=[N+]([O-])C(Br)(CO)CO | 4%
COc1cc2c(cc1OC)[C@@H]1C(=O)c3ccc(O)c(CC=C(C)C)c3OC1CO2 (some centres undefined) | -11%
CC(C)C1C(=O)N2CCCC2[C@]2(O)O[C@@](NC(=O)[C@@H]3C=C4c5cccc6[nH]cc(c56)C[C@H]4N(C)C3)(C(C)C)C(=O)N12 (some centres undefined) | 20%
CN(C)C1C(=O)C(C(N)=O)=C(O)[C@@]2(O)C(=O)C3=C(O)c4c(O)cccc4[C@@](C)(O)C3CC12 (some centres undefined) | 50%[activator]
O=C(CCCN1CCC2(CC1)C(=O)N(Cc1cccc(F)c1)CN2c1ccccc1)c1ccc(F)cc1 | ?
CC(C)[C@@H]1CN[C@H](C(=O)O)[C@@H]1CC(=O)O | -27%
COc1ccc2c3c([nH]c2c1)C(C)=NCC3 | -8%&-35%&2%
CC(C)(c1ccc(OC[C@@H]2CO2)cc1)c1ccc(OC[C@H]2CO2)cc1 | ?

Overlap with the part before: 3 compounds; new compounds follow.
SMILES | EPAC2 ant val
CC(C)[C@@H]1CN[C@H](C(=O)O)[C@@H]1CC(=O)O | -27%
COc1ccc2c3c([nH]c2c1)C(C)=NCC3 | -8%&-35%&2%
CC(C)(c1ccc(OC[C@@H]2CO2)cc1)c1ccc(OC[C@H]2CO2)cc1 | ?
CN(C)C(=O)Oc1cc(OC(=O)N(C)C)cc(C(O)CNC(C)(C)C)c1 (centres undefined) | -10%
CNC1[C@@H](O)C(OC2C(N)C[C@H](N)[C@@H](O[C@@H]3OC(C(C)O)C(O)C(O)C3N)C2O)OC[C@]1(C)O (some centres undefined) | -10%
COC(=O)C1=CCCN(C)C1 | 7%&-6%&11%
c1ccc2c(c1)OC[C@@H](C1=NCCN1)O2 | -15%
O=CN1CC2CC(C1)c1cccc(=O)n1C2 (centres undefined) | -7%
COc1ccc(CC2NCC(O)C2OC(C)=O)cc1 (centres undefined) | -24%
NCCc1c[nH]c2ccc(O)cc12 | -13%
CC(C)(C)c1o[nH]c(=O)c1CC(N)C(=O)O (centres undefined) | 12%
C#CCN1CC(=O)N(COC(=O)C2C(C=C(C)C)C2(C)C)C1=O (centres undefined) | -23%
CCN1C[C@@]2(OC(=O)c3ccccc3NC(C)=O)CCC(OC)[C@@]34C5CC6C(OC)C[C@@](O)(C(CC23)[C@@H]14)C5(O)C6OC (some centres undefined) | -2%
C[C@H](N)C(=O)c1ccccc1 | 31%
CC1/C=C/C=C/CC/C=C/C=C/C=C/C=C/C(OC2OC(C)C(O)C(N)C2O)CC2O[C@](O)(CC(O)C(O)CCC(O)CC(O)CC(O)CC(=O)OC(C)C(C)C1O)CC(O)C2C(=O)O (some centres undefined) | -11%
CN1[C@H]2CC[C@@H]1[C@@H](C(=O)O)[C@@H](OC(=O)c1ccccc1)C2 | ?
CCCCC/C=C\C[C@@H](/C=C/C=C\C/C=C\CCCC(=O)O)OO | 0%[1.17 µM]
c1ccc(CCCN2CCN(CCOC(c3ccccc3)c3ccccc3)CC2)cc1 | ?
O=C(O)COc1ccc(Cl)cc1Cl | -13%
Cc1c(C(=O)c2ccc3ccccc3c2)c2cccc3c2n1[C@H](CN1CCOCC1)CO3 | -21%
COCC(=O)N1CCC2(CCCN(Cc3ccncc3)C2)CC1 | -29%
C=C1[C@@H](C)[C@H]2[C@H](Cc3ccccc3)NC(=O)[C@]23OC(=O)/C=C/[C@H](O)CCC[C@@H](C)C/C=C/[C@H]3[C@@H]1O | -2%
NC(=O)[C@H](Cc1ccccc1)NC(=O)[C@H](Cc1c[nH]c2ccccc12)NC(=O)[C@@H]1CCCN1C(=O)[C@@H](N)Cc1ccc(O)cc1 | 4%[11.4 µM]
COP(=S)(OC)Oc1cc(Cl)c(Cl)cc1Cl | -14%&4%
CN1CC[C@@]2(C)c3cc(O)ccc3N(C)[C@@H]12 | 5%
COc1ccc(NC(=O)N2CC3(CCN(C(=O)Oc4ccccc4)CC3)C2)cc1 | -21%
CCC(OC(C)=O)C(CC(C)NC)(c1ccccc1)c1ccccc1 (centres undefined) | -5%[239 µM]
CS(=O)(=O)N1CCC2(CC1)CN(Cc1ccncc1)C2 | -16%
CC1C(=O)OC2C1CC[C@@]1(C)C=CC(=O)[C@@]3(C)O[C@@]213 (some centres undefined) | -7%
CO/C=C(/C(=O)OC)c1ccccc1Oc1cc(Oc2ccccc2C#N)ncn1 | -17%[239 µM]
C=C(C)CN1CC[C@@]23c4c5ccc(O)c4O[C@H]2c2[nH]c4ccccc4c2C[C@]3(O)[C@@H]1C5 | ?
CC(=O)O[C@H]1C[C@H](O[C@H]2[C@@H](O)C[C@H](O[C@H]3[C@@H](O)C[C@H](OC4CC[C@@]5(C)[C@H](CC[C@@H]6[C@@H]5CC[C@]5(C)[C@@H](C7=CC(=O)OC7)CC[C@]65O)C4)O[C@@H]3C)O[C@@H]2C)O[C@H](C)[C@H]1O[C@@H]1O[C@H](CO)[C@@H](O)[C@H](O)[C@H]1O (some centres undefined) | 1%
CC[N+](C)(CC)CCOC(=O)C(O)(c1ccccc1)c1ccccc1 | -6%
COC1CC(=C(c2cccs2)c2cccs2)C[N+](C)(C)C1 (centres undefined) | -15%
CC(C)NCC(O)c1ccc(N)c(C#N)c1 (centres undefined) | -20%[239 µM]
Cc1cccc(Cc2cnc[nH]2)c1C | -20%
COc1ccc2[nH]cc(CCN(C)C)c2c1 | -1%
OC[C@@H](O)[C@H]1O[C@@H]2O[C@@H](C(Cl)(Cl)Cl)O[C@@H]2[C@H]1O | -23%
ClC1=C(Cl)[C@]2(Cl)[C@@H]3[C@H]4C[C@H]([C@@H]5O[C@H]45)[C@@H]3[C@@]1(Cl)C2(Cl)Cl | -11%
CCCC(C)C1(CC)C(=O)N=C(S)NC1=O (centres undefined) | -11%&-13%
COP(=S)(OC)Oc1ccc([N+](=O)[O-])cc1 | ?
CC(C)C(O)(C(=O)OC[C@@H]1CC[N+]2([O-])CCCC12)C(C)O (some centres undefined) | 23%
COc1cc2ccc(=O)oc2c2ccoc12 | -17%

Of the compounds above, five have a carbonyl joined to an NH by a bond outside any ring.
SMILES | EPAC2 ant val
CC(C)C1C(=O)N2CCCC2[C@]2(O)O[C@@](NC(=O)[C@@H]3C=C4c5cccc6[nH]cc(c56)C[C@H]4N(C)C3)(C(C)C)C(=O)N12 (some centres undefined) | 20%
CN(C)C1C(=O)C(C(N)=O)=C(O)[C@@]2(O)C(=O)C3=C(O)c4c(O)cccc4[C@@](C)(O)C3CC12 (some centres undefined) | 50%[activator]
CCN1C[C@@]2(OC(=O)c3ccccc3NC(C)=O)CCC(OC)[C@@]34C5CC6C(OC)C[C@@](O)(C(CC23)[C@@H]14)C5(O)C6OC (some centres undefined) | -2%
NC(=O)[C@H](Cc1ccccc1)NC(=O)[C@H](Cc1c[nH]c2ccccc12)NC(=O)[C@@H]1CCCN1C(=O)[C@@H](N)Cc1ccc(O)cc1 | 4%[11.4 µM]
COc1ccc(NC(=O)N2CC3(CCN(C(=O)Oc4ccccc4)CC3)C2)cc1 | -21%

Following part:
SMILES | EPAC2 ant val
O=[N+]([O-])c1cc(I)c(O)c(I)c1 | -23%
OC(c1ccccc1)(c1ccccc1)C1CCNCC1 | -4%[56.6 µM]
CNC(=O)Oc1ccccc1OC(C)C | -7%
Nc1ccc(Sc2ccc(N)cc2)cc1 | -15%[239 µM]
COP(N)(=O)SC (centres undefined) | -14%
COc1cc2c(cc1OC)[C@@]13CCN4CC5=CCO[C@H]6CC(=O)N2[C@H]1[C@H]6[C@H]5C[C@H]43 | -18%
COC1=CC=C2[C@H]3Cc4ccc(OC)c5c4[C@@]2(CCN3C)[C@H]1O5 | 36%[activator][239 µM]
CC(C)(C)OC(=O)c1ncn2c1[C@@H]1CCCN1C(=O)c1c(Br)cccc1-2 | -6%
Nc1ccccc1C(=O)O | -1%
NC(N)=Nc1ccc2[nH]c3c(c2c1)C[C@]1(O)[C@@H]2Cc4ccc(O)c5c4[C@]1(CCN2CC1CC1)[C@@H]3O5 | -17%
C[N+]1(C)CCOC(O)(c2ccc(-c3ccc(C4(O)C[N+](C)(C)CCO4)cc3)cc2)C1 (centres undefined) | 5%&-4%
CCC1(CC)C(=O)C=CNC1=O | -11%
CNC(=O)Oc1cccc2c1OC(C)(C)C2 | -9%
CCOC(=O)[C@]12Cc3ccccc3[C@H]1N(Cc1ccccc1)C(=O)c1ccccc12 | -19%
CCC1(c2ccccc2)C(=O)NC(=O)NC1=O | -29%
C[C@H]1CCCC=CC2C[C@H](O)C[C@@H]2[C@H](O)C=CC(=O)O1 (some centres undefined) | -19%
O=C(CN1CCCC2CCCCC21)c1ccc(I)cc1 (centres undefined) | -10%
CC(C)CCCC1(C)C=Cc2c(O)c3c(c(CCC(C)C)c2O1)OC12C(CC4CC1C(C)(C)OC2(CCC(C)C(=O)O)C4O)C3=O (centres undefined) | ?
Oc1ccc2[nH]cc(CCCCN3CC=C(c4ccccc4)CC3)c2c1 | 36%[activator]
c1ccc(CN2CCNCC2)cc1 | 11%[453 µM]
NCC(O)c1ccc(O)cc1 (centres undefined) | 4%&-6%&-13%
C=CCC1([C@H](C)CCC)C(=O)NC(=O)NC1=O | ?
COC(C)C(O)(C(=O)OC1=CCN2CC[C@H](O)[C@H]12)C(C)C (some centres undefined) | -8%
O=C(Nc1ccccc1)N1CCC2(CC1)CCN(C(=O)Oc1ccccc1)CC2 | -24%
N[C@@H](Cc1ccc(N(CCCl)CCCl)cc1)C(=O)O | 9%
CNC(=O)OCC[N+](C)(C)C | 4%
COc1cc2occc2c2oc(=O)ccc12 | 15%&-10%
C=C(C)[C@H]1Cc2c(ccc3c2O[C@@H]2COc4cc(OC)c(OC)cc4[C@@H]2C3=O)O1 | ?
CCC(=O)O[C@](Cc1ccccc1)(c1ccccc1)[C@H](C)CN(C)C | -3%[239 µM]
Oc1ccc2c3c1O[C@H]1c4oc5ccccc5c4C[C@]4(O)[C@H](C2)N(CC2CC2)CC[C@@]314 | -35%
O=C(c1ccco1)N1CCC2(CC1)CN(Cc1ccncc1)C2 | -17%
C[C@H](NC(=O)[C@@H](N)Cc1ccc(O)cc1)C(=O)N[C@@H](Cc1ccccc1)C(=O)NCC(=O)N[C@@H](Cc1ccc(O)cc1)C(=O)N1CCC[C@H]1C(=O)N[C@@H](CO)C(N)=O | 6%[11.4 µM]
CC1CC(O)[C@]2(O)[C@]13CC(=O)OC[C@@]2(C)[C@@](C)(O)C(=O)C3 (some centres undefined) | -7%

Of the compounds above, 3 contain a nitro group on carbon:
SMILES | EPAC2 ant val
O=[N+]([O-])C(Br)(CO)CO | 4%
COP(=S)(OC)Oc1ccc([N+](=O)[O-])cc1 | ?
O=[N+]([O-])c1cc(I)c(O)c(I)c1 | -23%

The list is partial; count on the stated rates, not on these rows.
